Vaccinia mCherry: inhibitors of vaccinia virus infection (mCherry reporter signal); AID 720579; Potency, µM (series often up to 36.5 µM), inactives show top-dose activity change, negative = inhibition, usual class: inhibitors; Vaccinia virus mCherry reporter infection, fluorescence; about a quarter of the inactives have no number; hit rate 0.63% among 310,000; active = well fitted inhibition curve with a large enough effect; inconclusive = small, poorly fitted or top-dose-only effect; inactive = no such curve, though single readings can be large or run the other way; tested in A549 cells; note: nearly all actives have a fitted effect of over 35% in size; inactives centre near -10
VACV Venus inh: inhibitors of vaccinia virus (Venus reporter). Vaccinia virus Venus reporter expression, fluorescence. Potency, µM (titrated, usually from 36.5 µM), without a hit: at the top dose activity change, negative = inhibition, usual class: inhibitors. hit rate 0.46% among 330,000; active means well fitted inhibition curve with a large enough effect; inconclusive means small, poorly fitted or top-dose-only effect; inactive means no such curve, though single readings can be large or run the other way; tested in A549 cells; note: nearly all actives have a fitted effect of over 30% in size; inactives centre near -10
Numbers without * were called inactive; i = inactive; ? = inconclusive; / = not tested or not shown; [ ] = remark or other dose. % is set by controls: 0 for no effect and ±100 for the full control effect; potency is the fitted concentration of half-maximal effect. Not a hit list. Share with any hit: about 0.87%.

SMILES	Vaccinia mCherry	VACV Venus inh
O=C(Nc1ccc2c(c1)OCCO2)NC1(C(F)(F)F)Oc2ccccc2O1	?	-5%
COc1cc(CN2C[C@@H](CO)O[C@@H](n3cnc4c(NCc5ccco5)ncnc43)C2)cc(OC)c1OC	-2%	10%
Oc1cccc(Nc2cc(-c3ccccc3)ncn2)c1	-16%	-16%
CN1CC(c2ccccc2)C2(COc3ccccc3C2=O)C12C(=O)Nc1ccccc12 (configuration not stated)	-23%	-16%
COC(=O)C[C@H]1CC[C@H](NC(=O)Nc2ccccc2F)[C@@H](CO)O1	-6%	-8%
COc1ccc(CCC(=O)NCCc2csc(-c3cccc(F)c3)n2)cc1	-21%	-10%
CS(=O)(=O)N(CC(=O)Nc1ccc2c(c1)OCO2)Cc1ccccc1	-11%	-6%
O=C(CN1CCN(C(=O)c2cccc(F)c2)CC1)NC1CCCCC1	/	-19%
COc1cc(/C=C(\C#N)C(=O)NC(C)C)ccc1OCc1ccc(C(=O)O)cc1	i	-10%
O=C(NNC(=O)c1cccnc1)Nc1ccc([N+](=O)[O-])cc1	-11%	-12%
C=CCN1c2ccccc2C(=O)C(C)S1(=O)=O (configuration not stated)	i	-7%
Cc1ccccc1CSc1ncnc2ccccc12	0%	-15%
Cc1ccc(-c2cc(C(F)F)n3ncc(C(=O)Nc4c(C)nn(Cc5ccccc5Cl)c4C)c3n2)cc1	?	-24%
C=CC[N+]1(CC(=O)NCc2ccc(NC(C)=O)cc2)CCOCC1	i	20%
CCCCN(C(=O)c1oc2ccc(OCC)cc2c1C)c1c(N)n(CCCC)c(=O)[nH]c1=O	i	-9%
CCCN1CCCc2cc(CN)ccc21	-24%	-24%
CC1CC(C(F)(F)C(F)(F)F)n2nc(C(=O)O)cc2N1 (configuration not stated)	-4%	-13%
COc1ccc(N2C(=O)C(CC(=O)Nc3ccccc3)N(CCC3=CCCCC3)C2=O)cc1 (configuration not stated)	i	-13%
O=C(CCCN=C1NS(=O)(=O)c2ccccc21)OCC(=O)c1ccccc1Cl	-9%	-4%
CC(C)(CN1CCN(c2ccccc2)CC1)NS(=O)(=O)c1ccccc1	?	-18%
Cc1cc(C)cc(SCc2noc(C(=O)NCC3CC3)c2C(=O)NCC2CC2)c1	i	-22%
CS/C(=N\S(=O)(=O)c1ccc(N)cc1)NS(=O)(=O)c1cccs1	/	-9%
CC(C)c1ccc(C(=O)N2CCCC(c3cc(C(=O)Nc4ccc5c(c4)OCO5)no3)C2)cc1 (configuration not stated)	59%[activator]	39%[activator]
CCCCC1(Cc2cccc([N+](=O)[O-])c2)C(=O)N(c2ccccc2)N(c2ccccc2)C1=O	-10%	-30%
COc1ccc(C2CC(c3cccs3)=NN2C(=O)CSc2nc(=O)n3ccccc3n2)cc1 (configuration not stated)	-5%	?
(more compounds)
SMILES	Vaccinia mCherry	VACV Venus inh
Cc1cc(C)cc(N2CN=c3s/c(=C\c4ccco4)c(=O)n3C2)c1	-10%	-9%
Cc1ccc(-n2c(-c3nn(C)c(C)c3Cl)n[nH]c2=S)cc1	-19%	-17%
O=C(O)c1ccc(NC(=O)c2ccccc2NC(=O)c2ccccc2Cl)cc1	i	-13%
O=C(CSC1=Nc2ccccc2N=C(c2ccc(F)cc2)C1)Nc1ccccc1	-13%	-11%
Cc1ccc(SC/C(O)=C(\C#N)c2nc3ccccc3s2)cc1	/	-5%
Cc1ccc(OCc2nnc(SCC(=O)N3C(C)CCCC3C)o2)cc1 (configuration not stated)	-10%	-15%
CC(C)[C@@H](C(=O)NC1CC1)N1C(=O)N2CCc3c([nH]c4ccccc34)[C@@]2(C)C1=O	-6%	-8%
COc1ccc(CN2C(=O)c3cccc4cccc(c34)C2=O)cc1	i	-1%
COc1ccc(-n2cnc3cc(C(=O)NCC4CCCO4)ccc32)cc1 (configuration not stated)	-14%	-11%
CC(C)Cc1ccc(S(=O)(=O)N2CCOCC2)cc1	-18%	-13%
O=C(O)C1(Nc2ccc(Cl)cc2)CCCC1	i	-10%
CC(C)(C)S(=O)(=O)/C(C#N)=N/Nc1ccc(S(N)(=O)=O)cc1	-19%	395%[activator]
COc1ccc(NC(=O)C(=O)NCCc2csc(-c3ccc(Cl)cc3)n2)cc1	0%	-8%
CCOC(=O)c1ccc(NC(=O)c2nsc3ccccc23)cc1	-7%	-2%
CCC1CCCCN1S(=O)(=O)c1cc2c(cc1C)NC(=O)CO2 (configuration not stated)	-18%	-19%
OCCC1CN(Cc2cccc3nonc23)CCN1C1CCCCC1 (configuration not stated)	-3%	-18%
Cc1cc(NC(=O)COC(=O)COc2ccc(Cl)cc2C)c([N+](=O)[O-])cc1C	-5%	-9%
CCC(Oc1ccccc1F)C(=O)Nc1c(C(=O)c2ccccc2)oc2ccccc12 (configuration not stated)	-3%	-4%
Cc1c(C)c2c(c(C)c1O)CCC(C)(CCCC(C)CCCC(C)CCCC(C)C)O2 (configuration not stated)	-12%	-5%
COCCn1c(SCC(=O)Nc2cccc(S(N)(=O)=O)c2)nc2cc(Cl)ccc2c1=O	4%	4%
Nc1nc2c(ncn2C2C[C@H](O)[C@@H](CO)O2)c(=O)[nH]1 (some centres not stated)	-9%	-19%
C[C@@H]1CN([C@H](C)CO)C(=O)CCCn2nncc2CO[C@H]1CN(C)C(=O)Nc1cccc(Oc2ccccn2)c1	12%	-11%
Cc1cccc(NC(=O)c2c(C)oc3ncnc(N4CCCCC4)c23)c1C	i	-10%
O=C(c1cc2ccccc2o1)N1CCN(C/C=C/c2ccccc2)CC1	-29%	-19%
C[C@H](C(=O)O)c1n[nH]c(=O)c2ccccc12	-25%	-19%
Next entries.
SMILES	Vaccinia mCherry	VACV Venus inh
CCOc1ccc(C(=O)c2cn(CC(=O)Nc3ccc(OC)cc3)c3cc4c(cc3c2=O)OCO4)cc1	-4%	-9%
C=CCn1c(SCC(C)=O)nc2sc3c(c2c1=O)CCC3	3%	-22%
O=C(COc1ccccc1)N1CCN(c2ncnc3c2cnn3-c2ccccc2)CC1	/	-20%
COCCn1c(SCCN2CCOCC2)nc2c1c(=O)[nH]c(=O)n2C	0%	5%
O=C(Nc1ccccc1)Nc1ccc2nnsc2c1	?	?
COc1ccc(C(=O)NCc2nnc(SCC(=O)N3CCCC3)o2)cc1OC	i	-5%
CN(c1ccccc1)S(=O)(=O)c1ccc(C(=O)Nc2nnc(C3CC3)s2)cc1	-3%	-10%
Cc1ccc(-n2cc(CNCCn3nc(C)cc3C)c(-c3ccc(F)cc3)n2)cc1	-16%	?
COC(=O)C1=C(C)NC(C)=C(C(=O)OC)C1c1ccc(C)o1	-3%	-12%
COc1ccc(C(CNC(=O)c2ccc(S(=O)(=O)Nc3ccccc3C)cc2)N2CCOCC2)cc1 (configuration not stated)	-3%	-20%
COc1ccc(/C=C/c2cc(C(=O)O)c3ccccc3n2)cc1	-24%	-13%
O=C(Nc1ccc(F)cc1)N1CCN(C(=O)C2CCCO2)CC1 (configuration not stated)	-18%	-14%
Cc1ccc(S(=O)(=O)N2CCN(CC(=O)N/N=C/c3ccc(Br)s3)CC2)cc1	-19%	?
CCC(Cn1nnc2ccccc2c1=O)NC(=O)Nc1ccc(C)c(C)c1 (configuration not stated)	-8%	-5%
COc1ccc([C@@H]2[C@@H]3C(=O)N(C(C)(C)C)C(=O)[C@@H]3[C@]3(Cc4ccc(Cl)cc4)C(=O)N(c4cccc(C)c4)C(=O)N23)cc1	i	-11%
CCCCN(Cc1ccco1)C(=O)Cn1ncc2c([nH]c3ccccc32)c1=O	-14%	-12%
Cc1cc(=O)[nH]c(SCC(=O)Nc2nnc(SCc3ccccc3)s2)n1	-9%	-10%
O=C(NCCc1ccccc1)C1CCC(=O)N(Cc2cccc(C(F)(F)F)c2)C1 (configuration not stated)	-4%	-14%
COc1cc(NS(=O)(=O)c2cc3c(cc2C)n(C)c(=O)c(=O)n3C)cc(OC)c1	-14%	-8%
COc1ccc(OCCCC(=O)NCCc2ccccc2)cc1	i	-15%
CCOc1ccc(NC(=O)C2CCN(c3nnc(C)c4c(C)n(-c5ccccc5)nc34)CC2)cc1	-10%	-1%
COc1cc(C2NC(C(=O)O)Cc3c2[nH]c2ccccc32)cc(OC)c1OC (configuration not stated)	-21%	-5%
O=C(Nc1cccc(-c2nc3cccnc3s2)c1)c1ccc(Cl)nc1	i	15%
O=C(OCN1C(=O)c2ccccc2C1=O)c1cccc(OC(F)F)c1	i	-7%
Cc1ccc(-n2nc(C)c3c(C)c(CCC(=O)Nc4ccc(CN5CCCC5)cc4)c(C)nc32)cc1	-17%	-8%
Next section:
SMILES	Vaccinia mCherry	VACV Venus inh
Cc1ccsc1/C=C1/CN(C)Cc2c1nc1ccccc1c2C(=O)O	15%	1%
C=C(C)Cn1c(CCNC(=O)c2ccco2)nc2ccccc21	-11%	-4%
O=C(NC1CCCC1)C(c1ccncc1)N(Cc1cccs1)C(=O)c1csnn1 (configuration not stated)	-16%	-11%
CSc1ccccc1C(=O)C1CCCN(C(=O)NC(C)C)C1 (configuration not stated)	i	-4%
Cc1ccccc1Oc1nnc(-c2cccs2)c2ccccc12	-19%	-11%
CCN(C(=O)COC(=O)CSc1ccc(C(N)=O)cc1[N+](=O)[O-])C1CCCCC1	i	-7%
COCCCN1C(=O)C(CC(=O)NC2CC2)CC(C(=O)N(C(C)C)C(C)C)=C1C (configuration not stated)	7%	5%
CCCSC1=N/C(=C\c2ccc3c(c2)OCO3)C(=O)S1	-15%	-11%
CCOC(=O)C1(C)CCCN(C(=O)C(c2ccccc2)c2ccccc2)C1 (configuration not stated)	i	-12%
O=C(NC1CCCCC1)c1ccc(COc2ccccc2)o1	-15%	-13%
O=[N+]([O-])c1ccccc1/C=C/C=N/n1c(-c2ccc(Cl)cc2)n[nH]c1=S	19%	19%
COc1ccc(OCc2nnc3n2N=C(c2ccc(C)cc2)CS3)cc1	-14%	-10%
Cn1c(=O)cc(OCC(=O)NCCC2=CCCCC2)c2ccccc21	0%	1%
CCOC(=O)c1cc2occc2n1Cc1ccc(F)cc1	i	-14%
Cc1ccc(C(=O)NCC(=O)OCC(=O)NCCc2ccccc2)s1	2%	6%
COC(=O)c1sc(N)c(C(=O)OC)c1COC(=O)C1CC(=O)N(Cc2ccco2)C1 (configuration not stated)	-17%	-10%
CC(=O)Nc1ccc(S(=O)(=O)NCCC(=O)OC(C)C(=O)c2ccc(C)cc2)cc1 (configuration not stated)	-14%	1%
CC(C)CCN(C(=O)Cc1ccccc1F)c1c(N)n(Cc2ccccc2)c(=O)[nH]c1=O	i	-7%
COc1ccc(NC(=O)CSc2nccc(C)n2)cc1	/	-8%
CC(=O)c1cccc(NC(=O)CN(Cc2ccccc2)S(C)(=O)=O)c1	i	-8%
COc1ccc(C(C(C(=O)c2ccco2)N2CCOCC2)N2CCOCC2)cc1 (configuration not stated)	/	-19%
CCC(C)[C@H](NC(=O)NC1CC1)C(=O)O (some centres not stated)	-5%	-7%
CC(C)(C)C1CCC(OC(=O)CCC(=O)Nc2ccccc2)CC1 (configuration not stated)	-3%	-16%
CC1=C(C(=O)NCc2ccccc2C)C2(CCCCCC2)OC1=O	-16%	-3%
CCC1(C)CC(c2nc(-c3ccc(OC)cc3)cs2)CCS1 (configuration not stated)	-14%	4%
Continuation.
SMILES	Vaccinia mCherry	VACV Venus inh
COc1ccccc1OC(C)C(=O)Nc1cccc(-c2nc3ccccc3s2)c1 (configuration not stated)	-24%	-11%
O=C(C[C@@H]1C/C=C/CC[C@@H](Cc2ccc(F)cc2)C(=O)O[C@H](c2ccccc2)CNC1=O)NCCO	i	-19%
CCN(CC)S(=O)(=O)c1ccc2c(c1)N(CC(=O)Nc1cccc(C(C)=O)c1)C(=O)CO2	-6%	0%
O=c1[nH]c(/C=C/c2ccccc2)c([N+](=O)[O-])c(=O)[nH]1	-13%	-15%
CCCCCCCNC(=O)C1(CC2CC(c3ccc(Cl)cc3)=NO2)CCN(C(=O)c2cc(OCC)c(OCC)c(OCC)c2)CC1 (configuration not stated)	-13%	-29%
Cc1nc(=S)n(-c2ccccc2)[nH]1	/	-9%
CC1(CCc2ccccc2)NC(=S)N(c2ccccc2)N1 (configuration not stated)	-15%	-8%
N[C@@H](Cc1ccc(O)cc1)C(=O)Nc1ccc2ccccc2c1	-3%	-20%

Screening data as filed in PubChem BioAssay.
